Assay outcomes as filed in PubChem BioAssay.
Beta apoptosis = blocks beta cell apoptosis. INS-1E cytokine-induced death, ATP luminescence, 48 h; percent of positive-control rescue, neutral wells zero. protection from apoptosis, % (no concentration beside the values). actives 0.8% (n = 300,000);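 active = all replicates at 75% or more, or half of them and the mean; inconclusive = half reach 75% but not the mean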;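 note: 0% = cytokine-treated negative control wells and 100% = positive control rescue; higher means more ATP so stronger rescue from cytokine killing; wells of about 40 µL received 100 nL stock; the first replicate is given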
UCH37 inh = inhibitors of human deubiquitinating enzyme UCH37; AID 588478; purified proteasome/UCH37, Ub-AMC cleavage fluorescence; actives 0.33% (n = 330,000); inhibition, % (test concentration not listed); Q9Y5K5;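 active = mean of two replicates above 20%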;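 note: 0% = compound-free wells with enzyme and 100% = wells lacking proteasome; stock transfer was 100 nL into about 20 µL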
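System: Proteasome-associated human UCH37 deubiquitinase; Input: 0.15 nM proteasome in added enzyme buffer; Also added: Ub-AMC substrate from 1 µM stock; Incubation: 30 min compound-proteasome preincubation then 25 min substrate reaction, room temperature; Detection: fluorescence, ex 355 nm, em 460 nm; Read-out: % inhibition of Ub-AMC cleavage fluorescence; Benchmarks: no-proteasome and no-compound wells.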
Calb FLC = affects C. albicans growth with fluconazole | C. albicans CaCi-2 (fluconazole-resistant clinical isolate) + fluconazole, Alamar Blue growth, 48 h | growth inhibition, % (concentration not given with the values) | actives 0.57% (n = 300,000) | AID 1979;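 active = most replicates above 75%; inconclusive = exactly half above 75%; inactive = most below 75%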;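 note: all wells also contain fluconazole at 8 µg/ml as a sub-toxic cotreatment; 0% = median of DMSO wells and 100% = median of geldanamycin control wells; wells of about 8 µL received 7.5 nL stock; the first replicate is given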
RanGTP-Imp inh = disruptors of Ran-importin-beta complex formation – biochemical, FRET, CFP-Ran, YFP-importin-beta, homogeneous, primary screen | inhibition, % (test concentration not listed) | actives 1.1% (n = 300,000) | cell-free CFP-Ran/YFP-importin-beta FRET ratio;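 active = most replicates above 15%; inconclusive = exactly half above 15%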;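 note: 0% = DMSO wells and 100% = Ran loaded with GDP instead of GTP; wells of about 40 µL received 100 nL stock; the first replicate is given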
LANA-H2A inh = blocks KSHV LANA binding to histone H2A/H2B | Q9QR71 | cell-free LANA-H2A/H2B peptide, fluorescence polarization | inhibition, % (no concentration beside the values) | actives 0.6% (n = 320,000) | AID 2629; in the data active = inhibition mostly above about 10%, no sharp cut-off; inactive = mostly below about 6.7%;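 note: stock transfer was 7.5 nL into about 10 µL; 0% = median of vehicle wells and 100% = median of positive control wells; one replicate is shown; the record names a cut of 25% in any replicate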
Target sequence (Q9QR71 whole entry, looked up): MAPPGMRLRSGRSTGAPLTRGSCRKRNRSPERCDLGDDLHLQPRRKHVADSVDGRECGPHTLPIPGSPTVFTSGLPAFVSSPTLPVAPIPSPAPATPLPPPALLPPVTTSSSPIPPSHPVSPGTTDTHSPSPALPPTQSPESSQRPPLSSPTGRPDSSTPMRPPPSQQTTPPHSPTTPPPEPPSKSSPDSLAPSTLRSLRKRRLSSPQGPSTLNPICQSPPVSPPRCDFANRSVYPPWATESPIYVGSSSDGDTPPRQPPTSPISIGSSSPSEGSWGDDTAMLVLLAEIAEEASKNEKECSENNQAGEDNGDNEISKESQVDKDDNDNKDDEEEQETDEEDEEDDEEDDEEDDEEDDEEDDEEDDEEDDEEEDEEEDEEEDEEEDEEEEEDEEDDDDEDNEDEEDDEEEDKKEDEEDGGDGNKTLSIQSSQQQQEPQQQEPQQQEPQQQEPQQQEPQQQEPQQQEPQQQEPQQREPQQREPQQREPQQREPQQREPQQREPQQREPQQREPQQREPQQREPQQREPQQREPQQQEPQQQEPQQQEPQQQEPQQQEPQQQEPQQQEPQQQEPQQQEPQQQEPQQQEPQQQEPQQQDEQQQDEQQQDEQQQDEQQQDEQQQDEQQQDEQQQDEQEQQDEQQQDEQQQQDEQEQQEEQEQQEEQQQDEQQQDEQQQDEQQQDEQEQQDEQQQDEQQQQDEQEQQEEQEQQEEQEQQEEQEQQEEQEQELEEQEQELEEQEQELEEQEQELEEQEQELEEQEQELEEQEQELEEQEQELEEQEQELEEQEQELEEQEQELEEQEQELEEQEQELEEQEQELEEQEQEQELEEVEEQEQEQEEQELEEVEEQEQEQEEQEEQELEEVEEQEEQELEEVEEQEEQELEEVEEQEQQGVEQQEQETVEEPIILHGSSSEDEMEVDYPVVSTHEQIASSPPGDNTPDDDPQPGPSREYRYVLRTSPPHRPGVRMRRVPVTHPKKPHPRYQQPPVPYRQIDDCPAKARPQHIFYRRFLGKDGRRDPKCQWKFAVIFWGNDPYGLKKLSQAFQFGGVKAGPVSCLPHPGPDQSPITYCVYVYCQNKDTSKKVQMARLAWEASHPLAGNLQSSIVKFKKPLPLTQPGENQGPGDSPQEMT
Bfl-1 A1 inh = inhibitors of the anti-apoptotic protein A1, read as caspase activation. AID 2462. caspase activation, % (concentration not given with the values). MEF A1-2A-BIM cells, Caspase-Glo 3/7 luminescence, 3 h; percent of clofoctol response, vehicle zero. actives 0.066% (n = 330,000);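 active = over half of replicate activation scores above 10%, or exactly half above 10 with the replicate mean above 10; inconclusive = replicate mean below 10 yet half the replicates above 10; inactive = over half of replicates below 10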;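 note: wells of about 30 µL received 50 nL stock; many hits fall short of the cut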
Beta2AR agonist = agonists of human beta-2 adrenergic receptor inducing internalization. P07550. Am2.2-beta2AR cells, FAP receptor internalization, flow cytometry; reference of the scale not given here. response, % (no concentration beside the values). actives 0.43% (n = 340,000). AID 504454;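 active = response above a set limit, near 3 SD of response in nonfluorescent compounds, cut at about 42% in these data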;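 note: stock transfer was 100 nL into about 11 µL; a reference agonist was the positive control; negative values mostly stem from fluorescent compounds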
T cruzi repl = T. cruzi replication inhibition; inhibition, % (concentration not given with the values); actives 1.4% (n = 300,000); T. cruzi beta-gal in NIH3T3, luminescence, 90 h;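 active = mean inhibition across valid replicates above about 55%, limit read from the data; inconclusive = mean below that limit but half or more replicates reach it; inactive = mean below it, under half of replicates reach it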;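 note: signal also drops with host cell toxicity which is not excluded here; 0% = plate median of DMSO wells and 100% = zero luminescence signal; higher percent means less beta-gal luminescence so fewer parasites; stock transfer was 50 nL into about 50 µL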
Active calls of the source: *; i = inactive; u = inconclusive; x = no result given.

A first look, 2 compounds:
compound | Bfl-1 A1 inh | Beta apoptosis | Beta2AR agonist | Calb FLC | RanGTP-Imp inh | LANA-H2A inh | T cruzi repl | UCH37 inh
O=C(NC(=S)N1CCCC1)c1cccc([N+](=O)[O-])c1 | 0.1 | -2 | -4 | 9 | 2.7 | -2.1 | -10 | 3.5
CCN(C(=O)COC(=O)c1cccn1C)C1CCS(=O)(=O)C1 (configuration not stated) | 0.5 | 2 | 1 | 7 | -3.1 | 6.2 | -12 | -1.1

Main list, from the first entry:
compound | Bfl-1 A1 inh | Beta apoptosis | Beta2AR agonist | Calb FLC | RanGTP-Imp inh | LANA-H2A inh | T cruzi repl | UCH37 inh
O=C(NC(=S)N1CCCC1)c1cccc([N+](=O)[O-])c1 | 0.1 | -2 | -4 | 9 | 2.7 | -2.1 | -10 | 3.5
CCN(C(=O)COC(=O)c1cccn1C)C1CCS(=O)(=O)C1 (configuration not stated) | 0.5 | 2 | 1 | 7 | -3.1 | 6.2 | -12 | -1.1
c1ccc(-c2ccc(-c3ccccn3)nn2)nc1 | -5.6 | 16 | x | -20 | u | -1.4 | -5 | x
COc1ccc(Cl)cc1NC(=S)N1CCN(C(=O)C2CCCO2)CC1 (configuration not stated) | 0.6 | -7 | -4 | 22 | -4.1 | -0.5 | x | 4.1
CCOc1ccc(NC(=S)NC(=O)Cc2ccccc2)cc1 | 1.5 | 0 | -5 | -3 | -2.6 | 2.2 | -26 | -1.0
CCc1cccc(CC)c1C(OC(C)=O)c1cccnc1 (configuration not stated) | 0.1 | -3 | -4 | 8 | 4.4 | -2.2 | 5 | -0.1
Cc1ccc(NC(=O)c2ccccc2)cc1 | -5.1 | 6 | -3 | -10 | 1.5 | 0.7 | -2 | 0.1
Cc1ccc(-c2nc(Nc3cccc(C)c3)sc2CC(=O)O)cc1 | -2.5 | -8 | 6 | 10 | 4.6 | 1.9 | 3 | 1.8
COc1ccccc1NS(=O)(=O)c1ccc(C)c(C(=O)NCc2cccnc2)c1 | -0.9 | -6 | 5 | x | x | -0.2 | x | 2.8
CC(Oc1ccc(F)cc1)C(=O)N(Cc1ccccc1)c1c(N)n(Cc2ccccc2)c(=O)[nH]c1=O (configuration not stated) | 0.4 | -4 | 3 | 0 | 0.3 | 2.1 | -5 | 2.7
CC(C)(C)C(=O)NC(=S)Nc1ccc(C(F)(F)F)cc1 | -0.1 | 10 | 3 | 0 | -2.4 | 3.7 | -2 | 1.5
Nc1[nH]nc2nc(N3CCOCC3)nc(-c3ccccc3)c12 | 0.5 | -6 | -8 | -2 | -3.7 | 4.0 | -4 | 3.6
CC1C/C(=C/c2ccco2)C(=O)/C(=C/c2ccco2)C1 (configuration not stated) | 0.9 | x | x | -7 | -9.0 | 0.2 | -10 | 6.5
O=C(NCCCN1CCOCC1)c1cc(-c2ccccc2)on1 | 0.2 | 5 | -5 | 7 | -1.1 | -11 | 5 | 1.6
O=c1cc(-c2ccccc2Cl)oc2ccc([N+](=O)[O-])c(O)c12 | 0.5 | 1 | 1 | -4 | -1.1 | -2.4 | -22 | 1.9
Cc1csc(Nc2ccc(Cl)cc2)[n+]1-c1ccc(Cl)cc1 | -0.6 | 5 | -3 | 21 | -0.9 | -3.1 | -16 | 1.3
COC(=O)c1cn(NC(=O)c2cccc(N(C)C)c2)c(=O)c2ccccc12 | -1.0 | 1 | 5 | 5 | -1.9 | -0.4 | 21 | -6.9
N#CC1=C2SCN(c3ccccc3)CN2C(=O)CC1c1cccs1 (configuration not stated) | -0.4 | 3 | -10 | 41 | -0.1 | 2.4 | -9 | 9.9
Cc1ccc(-c2nnn(CC(=O)N(c3cccc(O)c3)C(C(=O)NC(C)(C)C)c3cccs3)n2)o1 (configuration not stated) | 0.3 | -3 | 2 | -7 | -0.6 | 0.6 | 11 | 1.7
CCNC(=S)NNC(=O)c1cc(-c2ccccc2C)nc2ccccc12 | 0.7 | 16 | -5 | 99* | 2.1 | -2.2 | 13 | -1.7
Nc1ccc2nc(-c3cc(Cl)c(N)c(Cl)c3)[nH]c2c1 | -8.1 | 17 | 16 | -4 | 0.3 | -2.9 | -9 | -149
COc1ccc(COC(=O)C2=C(C)NC(=O)NC2c2ccc(F)cc2)cc1 (configuration not stated) | 0.9 | -3 | 2 | -6 | 1.7 | 6.8 | 9 | 1.9
Nc1cccc(-c2cc(-c3ccccc3)nc(-c3cccc(N)c3)n2)c1 | -0.7 | 3 | -1 | 1 | -2.0 | -1.6 | -11 | i
CN(C)CC(C(=O)c1ccccc1)c1ccccc1 (configuration not stated) | -0.6 | 106* | 56* | 21 | 3.6 | -1.7 | 58* | -3.1
COC(=O)c1ccc(OCC(O)CN2CCc3cc(OC)c(OC)cc3C2c2ccccc2)cc1 (configuration not stated) | 0.3 | 2 | -3 | -1 | -8.0 | 0.5 | 18 | 1.0

3 compounds already listed, sorted by their value in Beta2AR agonist, rising:
| Structure | Beta2AR agonist | RanGTP-Imp inh | LANA-H2A inh | UCH37 inh |
| --- | --- | --- | --- | --- |
| Nc1cccc(-c2cc(-c3ccccc3)nc(-c3cccc(N)c3)n2)c1 | -1 | -2.0 | -1.6 | i |
| Cc1ccc(-c2nc(Nc3cccc(C)c3)sc2CC(=O)O)cc1 | 6 | 4.6 | 1.9 | 1.8 |
| Nc1ccc2nc(-c3cc(Cl)c(N)c(Cl)c3)[nH]c2c1 | 16 | 0.3 | -2.9 | -149 |

(listing goes on)
compound | Bfl-1 A1 inh | Beta apoptosis | Beta2AR agonist | Calb FLC | RanGTP-Imp inh | LANA-H2A inh | T cruzi repl | UCH37 inh
CCCCn1c(CN2CCOCC2)nc2c1c(=O)n(C)c(=O)n2C | 0.3 | -3 | -5 | -2 | 0.8 | 3.9 | 0 | 2.3
Clc1ccc(/C=C/c2ncc[nH]2)c(Cl)c1 | -4.9 | 8 | 0 | -12 | 6.0 | -1.1 | 48 | -44
Oc1cccc(C2c3[nH]c4ccccc4c3CCN2Cc2ccoc2)c1 (configuration not stated) | 1.2 | -5 | 6 | 4 | -1.5 | 3.5 | -8 | -9.1
COc1ccc(CCNC(=O)C2CCN(c3nccc(C)n3)CC2)cc1 | -0.4 | 3 | -3 | -6 | 1.0 | 0.9 | -13 | -14
CC1(CC(=O)O)C(=O)N=C2C=CC=CN21 (configuration not stated) | x | x | 3 | 26 | 0.8 | x | -8 | i
Cc1cc(C)nc(Nc2n[nH]c(-c3ccccc3Cl)n2)n1 | 0.8 | 6 | 0 | -2 | u | 4.1 | 5 | 0.0
CC1CCN(C(=O)c2ccc3c(=O)n4c(nc3c2)CCCCC4)CC1 | 0.3 | -7 | -12 | 0 | 0.7 | 10 | -1 | 4.4
CCCc1cc(=O)[nH]c2nnc(SCC(=O)NC3CCCCC3)n12 | 1.3 | 0 | 5 | -3 | 0.7 | 2.1 | -7 | -0.3
O=C(CCC1CCCC1)N1CCN(S(=O)(=O)Cc2ccccc2)CC1 | -0.1 | 5 | 1 | 4 | -3.0 | -2.6 | 1 | -2.2
CCOc1ccccc1-n1c(=S)sc2c(=O)n(-c3ccccc3)c(=S)[nH]c21 | -0.2 | -8 | 3 | 0 | -0.2 | -0.5 | -6 | 9.6
COCCNC(=O)c1onc(CSc2ccc(F)c(F)c2)c1C(=O)NCCOC | 2.1 | x | -1 | 3 | -1.1 | -6.4 | -5 | 3.1
O=C(c1cc(-c2ccccc2)on1)N1CCCC1 | -5.8 | x | -7 | -3 | -2.1 | -2.0 | -16 | 1.3
O=C(COC(=O)[C@H](Cc1ccccc1)NC(=O)c1ccco1)Nc1ccccc1 | 1.2 | -5 | -5 | x | x | 2.8 | x | 3.0
CO/C=C\C=C/c1nnn(-c2ccc(Cl)cc2)n1 | -0.1 | -4 | 0 | 8 | 4.0 | 1.5 | -29 | x
C=CCn1nc2ccccc2c1OCCO | -0.3 | -1 | 2 | 7 | 1.1 | 0.3 | -4 | 0.1
CCN1CCN(c2cc(C)c3cc(NC(=O)CCC(=O)Nc4ccc(OC)c(OC)c4)ccc3n2)CC1 | 0.1 | -6 | 9 | 10 | -2.0 | -1.0 | 13 | -82
COC(=O)[C@@H]1C[C@@]2(O)[C@@H](O)[C@@H](O)[C@@H](O)C[C@H]2N1CC1CCCCC1 | -0.1 | 4 | 0 | -11 | -3.0 | 4.3 | -11 | 4.5
CC(C)(C)NC(=O)CSc1nc2cc(S(=O)(=O)N3CCCCC3)ccc2o1 | 0.7 | -1 | 0 | x | x | -0.8 | x | -0.1
CCOc1ccccc1N(CC(=O)Nc1ccccc1C(=O)N1CCOCC1)S(C)(=O)=O | 0.2 | -1 | 0 | -6 | 3.9 | 3.7 | -4 | -0.6
Cc1ccc(N/N=C/c2c(C)c(C#N)c(=O)n(C)c2O)cc1C | x | x | 1 | -7 | -4.1 | x | -17 | -26
COc1cc(CN2CCC(Oc3cc(C(=O)NC4CC4)ccc3OC)CC2)cc(OC)c1 | 0.4 | -1 | -18 | 0 | 5.6 | 6.6 | 1 | 4.9
CC(C)c1ccc(S(=O)(=O)N2CCN(C(=O)CN3C(=O)c4ccccc4C3=O)CC2)cc1 | -0.2 | -1 | -1 | x | x | -4.0 | x | 1.1
CN(Cc1ccccc1)C(=O)C1CCN(S(C)(=O)=O)CC1 | 0.1 | -1 | -1 | -3 | 0.0 | 3.7 | -26 | 4.3
Cc1ccc(SCC(=O)N/N=C/c2ccco2)cc1 | -0.3 | -4 | 1 | 5 | 1.4 | 3.3 | -12 | x
COC(=O)c1cccc(CSC(=S)N2CCCC2)c1 | 0.9 | -16 | -11 | -6 | -0.8 | -0.2 | 4 | 0.3

Carrying on:
compound | Bfl-1 A1 inh | Beta apoptosis | Beta2AR agonist | Calb FLC | RanGTP-Imp inh | LANA-H2A inh | T cruzi repl | UCH37 inh
Cc1nnc(SCC(=O)N2CC(=O)Nc3ccccc32)n1-c1ccccc1 | 0.3 | 1 | 2 | 2 | -0.4 | 1.7 | 2 | 0.4
COc1ccc(Cl)cc1N1C(=O)/C(=C\c2sccc2C)N=C1SCC(=O)NC1CC1 | 0.0 | 21 | 11 | 40 | 3.3 | 3.9 | 3 | 3.2
NC(=O)c1ccccc1NC(=O)N1CCOCC1 | 0.7 | -5 | -2 | -8 | 1.1 | -5.9 | -4 | -0.8
CN(C(=O)COC(=O)c1cccc(NS(=O)(=O)c2ccc(F)c(F)c2)c1)C1CCS(=O)(=O)C1 (configuration not stated) | -1.0 | -2 | -4 | -20 | -2.3 | -2.2 | -5 | 0.5
Cc1ccc(C(=O)O)cc1N1CCCC1=O | 0.5 | -8 | 1 | 28 | -0.4 | 4.8 | -11 | 2.8
CCC(O)CNc1nc(SC)nc2sc3c(c12)CCN(C)C3 (configuration not stated) | -0.3 | -1 | 5 | 2 | 7.5 | -1.3 | 4 | -370
Cc1c(C)c2c(OCC(=O)NCc3cccnc3)cc3c(c2oc1=O)CCC(C)(C)O3 | -0.2 | 4 | -13 | 6 | 0.1 | -5.1 | -4 | -207
O=S(=O)(c1ccc(Br)cc1)c1cnc2ccccc2n1 | -0.2 | -5 | -7 | -3 | 7.6 | 3.5 | -57 | 3.3
Cc1ccccc1NC(=O)NC(N)=O | -0.9 | 4 | -3 | -16 | -3.2 | -0.9 | -12 | 5.2
